# Source: PubChem (National Center for Advancing Translational Sciences (NCATS))
# Marburg entry inh: Marburg virus entry inhibition; 300,000 compounds, 1.8% hits; Marburg virus pseudotyped entry inhibition, cell reporter; control for the full effect not named in the record; about a third of the inactives were read at about 46 µM; Potency, µM (series often up to 37.8 µM), for inactives: at the top dose activity change, negative = inhibition, usual class: inhibitors; active = well fitted inhibition curve with a large enough effect; inconclusive = small, poorly fitted or top-dose-only effect, or effect the other way; inactive = flat fitted curve, though single readings scatter; tested in HEK293 cells; about a fifth of its hits are not listed in these tables; further: on the % scale 0 is the no-effect control and ±100 the full control effect; luciferase read-out
# NS1 inh: influenza NS1 inhibition; 270,000 compounds, 0.4% hits; S. cerevisiae slowed by influenza A NS1, growth recovery by OD600; Potency, µM (top dose mostly 46.1 µM), for the others: at the highest dose activity, positive = more growth; active means well fitted rising curve with a large enough effect; inconclusive means small, poorly fitted or top-dose-only effect; inactive means no such curve, though single readings can be large or run the other way; further: nearly all actives have a fitted effect of over 50% in size
#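 S. cerevisiae expressing influenza A NS1, grown in glucose, washed, then diluted 1:100 into pH 6.0 -URA galactose medium with 23 nl compound. Growth recovery read as OD600; NS1-free strain serves as control.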
# SARS PLpro yeast: blocks SARS-CoV papain-like protease in a yeast assay; S. cerevisiae expressing SARS-CoV PLpro, growth rescue; control for the full effect not named in the record; Potency, µM (series often up to 32.9 µM), for inactives: top-dose activity, positive = growth rescue; 330,000 compounds, 0.19% hits; AID 485353; active means well fitted rising curve with a large enough effect; inconclusive means small, poorly fitted or top-dose-only effect; inactive means no such curve, though single readings can be large or run the other way; further: 0% is about no effect; nearly all actives have a fitted effect of over 55% in size; growth read by luminescence after 48 h
# 2A StopGo: lowers the luciferase signal of an FMDV 2A StopGo reporter; human cells with a luciferase reporter of 2A StopGo recoding; control for the full effect not named in the record; Potency, µM (titrated, usually from 57.9 µM), without a hit: at the top dose signal change, negative = less light; 410,000 compounds, 1.2% hits; AID 1159524; active = well fitted falling curve with a large enough effect; inconclusive = small, poorly fitted or top-dose-only effect; inactive = no such curve, though single readings can be large or run the other way; tested in HEK293T cells; further: on the % scale 0 is the no-effect control and ±100 the full control effect; nearly all actives have a fitted effect of over 45% in size; luciferase light after 4 h
# Cruzain inh Det: cruzain (T. cruzi) inhibition with detergent; purified cruzain, Z-FR-AMC fluorescence, 0.01% Triton; Potency, µM, for inactives: max response, negative = inhibition, usual class: inhibitors; 200,000 compounds, 0.43% hits; AID 1478;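 further: plate controls were neutral wells for no effect and buffer without enzyme for full effect; nearly all actives have a fitted effect of over 40% in size; top concentration of the series not given in the record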
# Target sequence (P25779 123-467 limits assumed): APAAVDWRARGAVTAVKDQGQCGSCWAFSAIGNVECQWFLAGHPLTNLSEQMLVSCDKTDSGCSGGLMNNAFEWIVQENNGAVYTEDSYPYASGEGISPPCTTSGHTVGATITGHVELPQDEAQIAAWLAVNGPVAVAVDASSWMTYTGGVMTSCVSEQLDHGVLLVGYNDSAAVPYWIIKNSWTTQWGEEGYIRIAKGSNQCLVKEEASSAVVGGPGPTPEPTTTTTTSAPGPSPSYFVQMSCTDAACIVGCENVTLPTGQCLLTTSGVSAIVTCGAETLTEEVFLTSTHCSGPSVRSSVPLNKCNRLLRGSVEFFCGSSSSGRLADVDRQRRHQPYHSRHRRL
#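 Enzyme 1.5 nM, Z-FR-AMC 2 uM, NaOAc 100 mM pH 5.5, DTT 5 mM, Triton X-100 0.01%; 15 min RT compound preincubation; kinetic ex360/em450, 60 s delta.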
# Lassa entry inh: inhibitors of Lassa virus binding or cell entry; 300,000 compounds, 1.2% hits; Potency, µM (titrated, usually from 37.9 µM), inactives show at the highest dose activity change, negative = inhibition, most hits filed as inhibitors; Lassa virus pseudotype entry inhibition, cell reporter; control for the full effect not named in the record; active means well fitted inhibition curve with a large enough effect; inconclusive means small, poorly fitted or top-dose-only effect, or effect the other way; inactive means flat fitted curve, though single readings scatter; tested in HEK293 cells; further: on the % scale 0 is the no-effect control and ±100 the full control effect; nearly all actives have a fitted effect of over 50% in size; luciferase read-out
# Cruzain inh noDet: blocks cruzain activity in detergent-free assay; P25779; purified cruzain, Z-FR-AMC fluorescence, no detergent; Potency, µM, for inactives: max response, negative = inhibition, usual class: inhibitors; 200,000 compounds, 2.3% hits; AID 1476;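 further: plate controls were enzyme without inhibitor for no effect and buffer without enzyme for full effect; nearly all actives have a fitted effect of over 40% in size; top concentration of the series not given in the record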
#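 Detergent-free condition (0.00005% Triton X-100) in acetate buffer pH 5.5 with DTT. 1.5 nM enzyme and compound were pre-mixed 15 min, then 2 uM Z-FR-AMC substrate added; reaction progress from fluorescence change between first and third reads (60 s).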
# RE007 growth inh: less growth of the S. pombe RE007 Vpr strain; S. pombe RE007 Vpr strain, BacTiter-Glo ATP luminescence, 24 h; control for the full effect not named in the record; Potency, µM (series often up to 92.2 µM), for the others: top-dose activity change, negative = less growth; 360,000 compounds, 0.21% hits; active = well fitted falling curve with a large enough effect; inconclusive = small, poorly fitted or top-dose-only effect; inactive = no such curve, though single readings can be large or run the other way;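 further: on the % scale 0 is the no-effect control and ±100 the full control effect; nearly all actives have a fitted effect of over 50% in size; the assay follows cell death caused by Vpr and the record does not say whether a fall means rescue or toxicity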
#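 Fission yeast strain RE007, carrying one chromosomally integrated HIV-1 vpr copy, was seeded at OD 0.01 in PMG+AL medium with 23 nL pinned compound. After 24 h at 30 °C and 99% humidity, viability was read by BacTiter-Glo luminescence.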
# Numbers without * were called inactive; ? = inconclusive; . = no result given; & = joins results of further samples; [ ] = another dose, or the depositor's remark. Unless noted, the call rests on the fitted dose curve; in most records, active means well fitted curve in the direction sought with a large enough effect; inconclusive means small, poorly fitted or top-dose-only effect, or another doubt; inactive means no such curve, though single readings can be large; an effect the other way counts as inactive or inconclusive. Potency means the concentration at half of the fitted maximal effect. This is a random part of the collection; 4.7% or so of the library scored in one or more.
SMILES,Marburg entry inh,NS1 inh,SARS PLpro yeast,2A StopGo,Cruzain inh Det,Lassa entry inh,Cruzain inh noDet,RE007 growth inh
CCc1ccc2oc(-c3cc(NC(=O)c4cc(OC)c(OC)c(OC)c4)ccc3O)nc2c1,.,.,.,-15%,-2.2%,15%[46.1 µM],2%,.
CC(=O)c1ccc(NC(=O)CSc2nc(-c3ccc(C)cc3)nc3c2c(=O)n(C)c(=O)n3C)cc1,.,.,.,-27%,4.0%,2%[46.1 µM],-12%,.
CC(=O)CC(=O)Nc1ccc(Cl)cn1,14%[46.1 µM],2%,0%,-5%,.,1%,.,18%
CN(CC(=O)N1CCC(C(N)=O)CC1)S(=O)(=O)c1ccc2ccccc2c1,3%[46.1 µM],-11%,-4%,3%,.,-1%[46.1 µM],.,-6%
O=C(CSc1ncn[nH]1)c1ccco1,5%,11%,-5%,-16%,-0.5%,6%,1%,-1%
CCOC(=O)Nc1ccc(C(=O)c2ccncc2)cc1,.,-3%,-1%,6%,.,.,.,-11%
CCOC(=O)C(=O)Nc1cc(Cl)ccc1C,4%,?,-11%,0%,0.0%,?,2%,3%
Cc1ccc(-c2nnn(Cc3nc4ccccc4s3)n2)cc1,?,-3%,-24%,43%[activator],-10%,10%,-5%,2%
CN(C)S(=O)(=O)c1cccc(C(=O)Nc2cc(S(=O)(=O)N3CCOCC3)ccc2O)c1,29%,.,-1%,-4%,.,1%,.,-18%
O=C(Nc1ccccc1Cl)c1cc(=O)c2ccccc2o1,?,-11%,-3%,44%[activator],.,29%,.,-13%
COc1ccc(N=C2S/C(=C\c3ccco3)C(=O)N2CC(C)C)cc1,4%,7%,-3%,-27%,-7.9%,?,-3%,?
C/C(=N\NC(=O)c1cccnc1)c1ccc(-n2ccnc2)cc1,29%,.,1%,-22%,.,-19%,.,3%
COCCn1nnnc1CN1CCN(c2cccc(C(F)(F)F)c2)CC1,13%,-2%,-2%,-22%,6.7%,-17%,18%,24%
N#C/C(=C\c1ccc(-c2ccc([N+](=O)[O-])cc2Br)o1)C(=O)N1CCN(c2ccccc2)CC1,.,-11%,6%,-18%,-4.3%,.,13µM*,6%
COc1ccccc1NC(=O)CSc1nc(-c2ccc(C(C)(C)C)cc2)c(C#N)c(=O)[nH]1,12%[46.1 µM],.,.,-9%,25µM*,2%[46.1 µM],?,.
COc1ccc(C(C)=NNc2ccc([N+](=O)[O-])cc2S(=O)(=O)Nc2ccccc2C(=O)O)c(OC)c1,?,.,-1%,?,.,-21%[46.1 µM],.,-13%
CC1N=C2c3ccccc3N=C(SCC(=O)NCCc3ccccc3)N2C1=O (stereo unspecified),.,.,.,-12%,-4.6%,8%[46.1 µM],-14%,.
CC/C(O)=C(\C#N)c1nnc2n1CCCCC2,-7%,2%,-4%,2%,5.1%,2%,-8%,0%
O=C(CCCCn1c(=O)c2ccccc2n(CC(=O)Nc2cccc(C(F)(F)F)c2)c1=O)NCc1ccc2c(c1)OCO2,-4%[46.1 µM],.,.,-7%,-2.1%,?,17%,.
O=C(Cn1cc(SCc2cccc(F)c2)c2ccccc21)N1CCCC1,.,.,.,12%,-8.3%,11%[46.1 µM],7%,.
O=[N+]([O-])c1cccc(-c2nnnn2-c2cccc(F)c2)c1,2%[46.1 µM],.,.,47%[activator],.,29%[46.1 µM],.,0%
COc1ccccc1NC(=O)Nc1nc(-c2cccnc2)nc2ccccc12,7.1µM*,-6%,.,-2%,11%&12%,.,-5%&-4%,.
CCc1nnc(NC(=O)C2Cc3ccccc3CN2S(=O)(=O)c2ccc(C)cc2)s1 (stereo unspecified),-25%,30%,3%,34%[activator],-10%,-4%,-10%,-16%
N#Cc1cccnc1Oc1ccccc1,15%[46.1 µM],-2%,1%,5%,.,-34%[46.1 µM],.,-4%
CCc1cc(CNC(=O)CCc2nnc(CCCc3ccccc3)o2)on1,.,-2%,-1%,70%[activator],.,.,.,5%
CCCCN(C)C(=O)c1oc2ccc(S(=O)(=O)N3CCCCCC3)cc2c1C,5%,-37%,-14%,35µM*,-2.4%,14%[14.3 µM],18%,10%
O=C(COc1ccc2c3c(c(=O)oc2c1)CCCC3)NCCCN1CCCC1=O,.,-3%,-4%,0%,.,.,.,2%
O=C(Cc1ccc(Cl)cc1Cl)Nc1ccncc1Cl,.,-64%,-16%,?,.,.,.,5%
c1csc(-c2cc(N3CCCCC3)c3ccccc3n2)c1,11%[46.1 µM],-5%,-7%,-15%,.,9%[46.1 µM],.,-22%
Cc1ccc2c(c1)N(CCC(=O)NCCCN1CCCC1)C(=O)C(C)O2 (stereo unspecified),2%[46.1 µM],24%,-5%,-7%,.,21%[46.1 µM],.,12%
O=C(NCCCCCCNC(=O)NCc1ccco1)NCc1ccco1,0%,8%,-5%,.,2.1%,.,2%,.
COc1ccc(/C(O)=C2\C(=O)C(=O)N(CCN(C)C)C2c2cccc(OC)c2OC)cc1Cl (stereo unspecified),-7%,-54%,-4%,-2%,-1.0%,2%,-12%,1%
Cc1cc(C)c(S(=O)(=O)NCc2cn3ccccc3n2)c(C)c1,.,21%,-2%,-29%,.,.,.,-8%
COc1cc(NS(=O)(=O)c2c(C)[nH]c(C)c2C(=O)N2CCCCC2)cc(OC)c1OC,-1%[46.1 µM],1%,-2%,0%,.,-7%[46.1 µM],.,16%
O=C(CCCC(=O)OCC(=O)NC1CCCC1)Nc1ccccn1,0%,?,1%,4%,5.4%,2%,-5%,8%
Cc1nc2ccccn2c1C(=O)NC1CCCc2ccccc21 (stereo unspecified),.,-5%,-6%,?,.,.,.,-11%
CCC(C(=O)Nc1cccc(OC)c1)n1nc(C)c2c(C)n(-c3ccccc3)nc2c1=O (stereo unspecified),1%[46.1 µM],-9%,-2%,-8%,.,-15%[46.1 µM],.,9%
Cc1cc(C)n2nc(SCc3ccccc3C(=O)O)nc2n1,.,8%,2%,-14%,.,.,.,12%
O=C1CSC(c2ccccc2F)N1 (stereo unspecified),-5%[46.1 µM],-4%,2%,17%,.,0%[46.1 µM],.,-12%
Cc1ccc(C(=O)N2CCN(c3cc(=O)[nH]nc3-c3ccccc3)CC2)cc1,-1%,8%,-5%,-19%,-0.3%,-23%,-1%,21%
COc1ccc(CC(=O)NNC(=O)CCc2ccccc2)cc1,?,-1%,-1%,9%,.,13%,.,-2%
O=C(NCC(=O)N(c1cccnc1)C(C(=O)NC1CCCC1)c1ccccc1)c1ccco1 (stereo unspecified),?,.,1%,-13%,.,4%,.,19%
NCCNc1ccc([N+](=O)[O-])c(Sc2nc3ccccc3[nH]2)c1,-19%,28%,2%,-5%,-6.2%,20%,?,-17%
C/C=C/c1ccc(OCC(O)CNCCc2ccc(OC)cc2)c(OC)c1 (stereo unspecified),.,0%,1%,-27%,.,.,.,0%
COc1cc(C(=O)NC(C)Cc2ccccn2)ccc1OC1CCN(C(C)=O)CC1 (stereo unspecified),.,3%,-9%,4%,.,.,.,0%

# By substructure, those above with a COOH group.
SMILES,Marburg entry inh,NS1 inh,SARS PLpro yeast,2A StopGo,Cruzain inh Det,Lassa entry inh,Cruzain inh noDet,RE007 growth inh
COc1ccc(C(C)=NNc2ccc([N+](=O)[O-])cc2S(=O)(=O)Nc2ccccc2C(=O)O)c(OC)c1,?,.,-1%,?,.,-21%[46.1 µM],.,-13%
Cc1cc(C)n2nc(SCc3ccccc3C(=O)O)nc2n1,.,8%,2%,-14%,.,.,.,12%

# Carrying on:
SMILES,Marburg entry inh,NS1 inh,SARS PLpro yeast,2A StopGo,Cruzain inh Det,Lassa entry inh,Cruzain inh noDet,RE007 growth inh
CNC(=O)c1nc(C)n(-c2cc(Cl)ccc2Cl)n1,1%,10%,4%,5%,4.3%,-4%,-4%,-5%
CCOc1ccc(C(=O)N2CCN(c3ccccc3)CC2)cc1OCC,-1%,-6%,-5%,-20%,1.0%,0%,11%,-13%
CC(C)CN(C(=O)CCc1ccccc1)c1c(N)n(CC(C)C)c(=O)[nH]c1=O,-1%,-3%,-7%,-15%,-1.9%,10%,0%,6%
O=C(Nc1ccc2nc(SCC(=O)N3CCCc4ccccc43)sc2c1)c1ccccc1,?,.,.,0%,-5.4%,?,?,.
CC(NC(=O)C12CC3CC(C)(CC(C)(C3)C1)C2)c1ccncc1 (stereo unspecified),-33%,-12%,1%,-19%,.,-2%,.,-15%
O=C(O)c1ccc(N=NN2CCCCCC2)cc1,?,16%,13µM*,?,-5.4%,10%,-1%,18%
CC(C)c1ccc(NC(=O)CN2C(=O)CCc3cc(S(=O)(=O)N4CCOCC4)ccc32)cc1,.,.,.,15%,-3.7%,1%[46.1 µM],?,.
CCOc1ccccc1NC(=O)COC(=O)CCOc1cc(C)ccc1C,2%,.,-16%,-7%,.,-2%,.,-8%
O=C(Nc1ccccc1)c1ccc(NCC2CCCO2)c(S(=O)(=O)N2CCOCC2)c1 (stereo unspecified),13%&13%[46.1 µM],-29%,-1%,27%,-4.6%,-2%,?,19%
CCCC(NC(=O)c1c(C)noc1C)C12CC3CC(CC(C3)C1)C2 (stereo unspecified),?,?,0%,0%,.,1%,.,24%
O=C(NCC1CC1)c1cc([N+](=O)[O-])cc([N+](=O)[O-])c1,2%,4%,-1%,-10%,.,?,.,2%
COc1cc(NC(=O)CCc2c(C)nc3c(c(C)nn3-c3ccccc3)c2C)cc(OC)c1OC,-3%[46.1 µM],.,.,?,1.4%,-11%[46.1 µM],3%,.
Cc1ccc(NC(=O)CCC(=O)NNC(=O)/C=C/C(=O)O)c(C)c1,8%,8%,24%,-17%,-3.1%,-11%,-2%,10%

# Full records from above. Screens in order: Marburg entry inh | NS1 inh | SARS PLpro yeast | 2A StopGo | Cruzain inh Det | Lassa entry inh | Cruzain inh noDet | RE007 growth inh
# Shown for `O=C(Nc1ccccc1)c1ccc(NCC2CCCO2)c(S(=O)(=O)N2CCOCC2)c1` (stereo unspecified) = 13%&13%[46.1 µM] | -29% | -1% | 27% | -4.6% | -2% | ? | 19%
# Shown for `CCOc1ccc(C(=O)N2CCN(c3ccccc3)CC2)cc1OCC` = -1% | -6% | -5% | -20% | 1.0% | 0% | 11% | -13%
